Screens from PubChem BioAssay.
Beta2AR agonist – human beta-2 adrenergic receptor agonism by FAP. 340,000 tested, 0.43% active. Am2.2-beta2AR cells, FAP receptor internalization, flow cytometry; reference of the scale not given here. AID 504454. response, % (concentration not given with the values);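 active = response above a set limit, near 3 SD of response in nonfluorescent compounds, cut at about 42% in these data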;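 note: stock transfer was 100 nL into about 11 µL; a reference agonist was the positive control; negative values mostly stem from fluorescent compounds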
FGF22 binding – binders of recombinant human FGF22 by thermal shift. Q9HCT0. calls only at 9.99 µM. SYPRO orange fluorescence; percent of sucrose octasulfate shift, DMSO zero. 340,000 tested, 1.5% active;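 active = melting point raised past a set limit in the mean and every replicate; three in four hits are not shown here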
Target sequence (Q9HCT0 whole entry, looked up): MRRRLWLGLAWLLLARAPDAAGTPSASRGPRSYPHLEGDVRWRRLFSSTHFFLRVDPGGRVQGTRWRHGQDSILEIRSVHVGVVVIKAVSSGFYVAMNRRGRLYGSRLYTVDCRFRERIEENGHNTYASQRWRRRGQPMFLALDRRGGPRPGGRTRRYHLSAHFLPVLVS
rRNA inh HTS – inhibitors of bacterial rRNA selective over humanized ribosomes. GFP signal change (wild-type ribosome), % (concentration not given with the values). E. coli WT GFP vs humanized-ribosome RFP mutants, fluorescence, 24 h; stronger effect = lower value; DMSO median 0, no signal -100. AID 720706. 350,000 tested, 1.6% active;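 active = significant combined selectivity score with lowered wild-type GFP, culture density cut under 30%, mutant RFP and density less affected; inactive = any of these conditions unmet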; note: one replicate is shown; some compounds called inactive have numbers as strong as hits
ALR inh – blocks human ALR sulfhydryl oxidase activity | 290,000 tested, 3.8% active | P55789 | purified ALR, DTT oxidation, H2O2 HRP-luminol luminescence | AID 485317 | inhibition, % (concentration not given with the values);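 active = mean and each replicate at 75% or more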;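 note: stock transfer was 7.5 nL into about 7.5 µL; 0% = neutral wells and 100% = wells with inactivated enzyme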
Target sequence (P55789 whole entry, looked up): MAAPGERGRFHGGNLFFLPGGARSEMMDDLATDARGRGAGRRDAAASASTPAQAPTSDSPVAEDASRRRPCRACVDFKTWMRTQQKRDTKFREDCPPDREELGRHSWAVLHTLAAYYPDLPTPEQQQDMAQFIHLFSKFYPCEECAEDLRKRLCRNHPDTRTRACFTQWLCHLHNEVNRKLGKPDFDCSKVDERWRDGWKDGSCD
Ecoli growth – E. coli growth inhibition | Escherichia coli growth, OD600, 23 h; stronger effect = lower value | OD600 absorbance (concentration not given with the values) | 330,000 tested, 0.21% active;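 active = OD600 absorbance below the run mean of sample wells minus 3.6 SD, in any replicate, cut at about 0.56 in these data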;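 note: stock transfer was 300 nL into about 60 µL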
HNF4A DNA FP – change in binding of human HNF4 alpha to DNA; HNF4a-FITC DNA binding, fluorescence polarization, 1 h; activity change, % at 10 µM; 360,000 tested, 0.3% active; in the data active = activity change above about 30%, passing the limit was not always enough;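 note: controls were the assay level and a saturating level of protein; the project sought stronger binding though the title names inhibitors; some compounds called inactive have numbers as strong as hits; positive values seem to mean higher polarization but the record does not say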
Target sequence (P41235 whole entry, looked up): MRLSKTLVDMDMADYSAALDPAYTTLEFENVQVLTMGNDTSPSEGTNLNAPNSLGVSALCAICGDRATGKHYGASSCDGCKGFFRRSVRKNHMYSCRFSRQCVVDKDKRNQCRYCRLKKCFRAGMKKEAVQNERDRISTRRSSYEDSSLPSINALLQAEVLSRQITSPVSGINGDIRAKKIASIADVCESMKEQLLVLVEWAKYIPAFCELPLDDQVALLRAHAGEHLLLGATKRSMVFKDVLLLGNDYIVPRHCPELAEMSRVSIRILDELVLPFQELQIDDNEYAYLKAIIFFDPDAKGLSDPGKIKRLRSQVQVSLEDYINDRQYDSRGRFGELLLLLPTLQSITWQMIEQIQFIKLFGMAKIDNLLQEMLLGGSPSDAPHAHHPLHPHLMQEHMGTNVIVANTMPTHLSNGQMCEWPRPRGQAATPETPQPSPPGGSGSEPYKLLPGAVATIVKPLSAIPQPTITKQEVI
UCH37 inh – human UCH37 deubiquitinating enzyme inhibition; Q9Y5K5; 330,000 tested, 0.33% active; inhibition, % (no concentration beside the values); purified proteasome/UCH37, Ub-AMC cleavage fluorescence;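 active = mean of two replicates above 20%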;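 note: 0% = compound-free wells with enzyme and 100% = wells lacking proteasome; stock transfer was 100 nL into about 20 µL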
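Test system – human UCH37 enzyme supplied as purified proteasome complex · Incubation – 30 min preincubation with enzyme, 25 min cleavage at room temperature · Detection – AMC fluorescence from Ub-AMC cleavage, excitation 355 nm, emission 460 nm · Benchmarks – no-proteasome wells (full inhibition) and compound-free wells (no inhibition)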
rRNA inh HTS OD600 – recorded beside rRNA inh HTS, whose call it bears; OD600 change, %; measured here: OD600 growth;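 optical density of the mix in the first replicate; 0 = DMSO median and -100 = no signal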
rRNA inh HTS RFP – further read-out of rRNA inh HTS, marked with its call; RFP signal change, %; measured here: RFP humanized mutant strains;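 first replicate; 0 = DMSO median and -100 = no signal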
Starred values were filed as active, the others as inactive; i = inactive; . = not tested or not shown. Not all compounds are listed, so the mix of outcomes need not match the whole.

SMILES | Beta2AR agonist | FGF22 binding | rRNA inh HTS | rRNA inh HTS OD600 | rRNA inh HTS RFP | ALR inh | Ecoli growth | HNF4A DNA FP | UCH37 inh
Cc1ccc(Cn2c(SCCN3CCOCC3)nc3c2c(=O)n(C)c(=O)n3C)cc1 | -9 | i | -7 | 1 | -1.4 | -12 | 0.71 | 3.4 | 3.8
Cc1cccc(-n2ncc3c(N4CCCC4)ncnc32)c1 | -14 | . | . | . | . | . | 0.67 | 0.6 | 4.6
CCCOc1c(Br)cc(C2C3=C(CCCC3=O)N(CC)C3=C2C(=O)CCC3)cc1OC | -5 | . | -46 | -72 | -12 | -16 | 0.68 | 0.7 | -310
CCOC(=O)c1c(NC(=S)Nc2ccccc2)sc2c1CCN(CC)C2 | -14 | . | . | . | . | 87* | 0.76 | 44* | -1.0
COc1cccc(NC(=O)c2nc(SC)ncc2Cl)c1 | -4 | i | 5 | 2 | 0.8 | -2 | 0.68 | -2.9 | 5.1
O=C(Nc1cc(S(=O)(=O)N2CCCCC2)ccc1Oc1ccccc1)C1=COCCO1 | 11 | i | -4 | -19 | 5.0 | -1 | 0.7 | 3.1 | -3.0
O=c1cnc(-c2ccc(Cl)cc2)cn1O | -2 | i | 8 | 3 | -0.5 | 62 | 0.67 | -1.5 | -25
CC(C)CN1CCN(Cc2c[nH]c3ccccc23)CC1CCO (stereo not drawn) | 2 | i | 3 | 13 | -2.7 | -11 | 0.73 | 2.9 | 3.6
Cc1c(C(=O)OCc2ccccc2)nnn1-c1nonc1N | 3 | . | . | . | . | -16 | 0.69 | 2.6 | 2.0
CCn1nc(NS(=O)(=O)c2ccccc2[N+](=O)[O-])c2cc3ccc(C)cc3nc21 | 3 | . | . | . | . | 57 | 0.66 | 1.4 | 5.5
CCc1ccc(-c2cc(C)no2)cc1S(=O)(=O)NCCc1ccc(S(N)(=O)=O)cc1 | -9 | i | -1 | -8 | -2.0 | -2 | 0.7 | 1.3 | 4.4
Cc1ccc(C(C(=O)NC(C)(C)C)N(CC2CCCO2)C(=O)c2csnn2)cc1 (stereo not drawn) | -1 | i | 0 | -1 | -1.3 | -3 | 0.69 | -0.8 | -0.6

Random excerpt: three entries already listed
SMILES | Beta2AR agonist | FGF22 binding | rRNA inh HTS | rRNA inh HTS OD600 | rRNA inh HTS RFP | ALR inh | Ecoli growth | HNF4A DNA FP | UCH37 inh
Cc1ccc(C(C(=O)NC(C)(C)C)N(CC2CCCO2)C(=O)c2csnn2)cc1 (stereo not drawn) | -1 | i | 0 | -1 | -1.3 | -3 | 0.69 | -0.8 | -0.6
COc1cccc(NC(=O)c2nc(SC)ncc2Cl)c1 | -4 | i | 5 | 2 | 0.8 | -2 | 0.68 | -2.9 | 5.1
CCn1nc(NS(=O)(=O)c2ccccc2[N+](=O)[O-])c2cc3ccc(C)cc3nc21 | 3 | . | . | . | . | 57 | 0.66 | 1.4 | 5.5

Shown tab-delimited: 3 of the compounds above
Molecule	Beta2AR agonist	FGF22 binding	rRNA inh HTS	rRNA inh HTS OD600	rRNA inh HTS RFP	ALR inh	Ecoli growth	HNF4A DNA FP	UCH37 inh
O=c1cnc(-c2ccc(Cl)cc2)cn1O	-2	i	8	3	-0.5	62	0.67	-1.5	-25
CC(C)CN1CCN(Cc2c[nH]c3ccccc23)CC1CCO (stereo not drawn)	2	i	3	13	-2.7	-11	0.73	2.9	3.6
Cc1c(C(=O)OCc2ccccc2)nnn1-c1nonc1N	3	.	.	.	.	-16	0.69	2.6	2.0

More compounds follow.
SMILES | Beta2AR agonist | FGF22 binding | rRNA inh HTS | rRNA inh HTS OD600 | rRNA inh HTS RFP | ALR inh | Ecoli growth | HNF4A DNA FP | UCH37 inh
Oc1cc(Nc2ccccc2)cc2cccnc12 | -3 | i | 1 | 6 | 9.0 | 57 | 0.69 | -0.7 | 3.7
CC(C)c1ccc(-c2nc(N3CCOCC3)[nH]c(=O)c2C#N)cc1 | -4 | . | . | . | . | 1 | 0.71 | 0.1 | 0.6
Cc1ccc(-c2nnc(Sc3nc4ccccc4o3)c3ccccc23)cc1 | 36 | . | . | . | . | 3 | 0.63 | 3.9 | 2.1
O=C1/C(=C/c2cccnc2)Cc2ccc(Cl)cc21 | -2 | i | 11 | 11 | -6.6 | 37 | . | 4.6 | -0.1
COc1ccc(C(=O)N/C(=C\c2ccccc2)C(=O)NCCCn2ccnc2)cc1 | -5 | i | -4 | -3 | -0.2 | 3 | 0.7 | 4.3 | 0.5
Cc1nc(N)ncc1Sc1ccc(Cl)cc1 | 5 | i | 10 | -1 | -0.8 | 3 | 0.71 | 2.5 | 1.5
CCSc1nc2c(c(=O)[nH]1)C(c1ccncc1)C(C(=O)OC(C)C)=C(C)N2 (stereo not drawn) | -2 | . | . | . | . | 7 | 0.67 | 2.2 | -4.2
CN(C)N1C(N)=C(C#N)C(c2cccnc2)C2=C1CCCC2=O (stereo not drawn) | 2 | . | . | . | . | -14 | 0.69 | 0.2 | 2.9
Cc1cc(Nc2nc3c(c(=O)n(C)c(=O)n3C)n2C)n(-c2ccc(Cl)cc2)n1 | 6 | . | . | . | . | 4 | 0.78 | 2.0 | -38
CCOc1ccc(S(=O)(=O)N2CCN(CC)CC2)cc1NC(=O)c1ccccc1F | 0 | i | 0 | -5 | 12 | 1 | 0.68 | -2.7 | 4.1
Cc1ccc(C2N(c3ccc(F)cc3)C(=O)C3CCCN32)cc1 (stereo not drawn) | -1 | i | 12 | 9 | -2.2 | 13 | 0.76 | 5.8 | -0.1
CCOP(=O)(c1ccccc1)C(O)c1ccc([N+](=O)[O-])cc1 (stereo not drawn) | -1 | i | 16 | 20 | 7.8 | 2 | 0.67 | 5.2 | 3.2
Cc1c(Cl)c([N+](=O)[O-])nn1Cc1ccc(C(=O)N/N=C\c2cccc(Br)c2)o1 | 4 | . | . | . | . | -5 | . | -1.1 | .
Cc1cc(-c2ccc(C)c(S(=O)(=O)N3CCN(C(=O)c4ccco4)CC3)c2)on1 | -15 | i | -4 | -17 | 4.3 | -2 | . | 5.0 | .
CCCCn1c(N)c(N(CCOC)C(=O)c2cc(-c3ccc(C)cc3)nc3ccccc23)c(=O)[nH]c1=O | -1 | i | 5 | 8 | -0.5 | . | . | 2.4 | .
COc1ccc(CNC(=O)c2ccc(-c3cccnc3)c3ccoc23)cc1OC | . | i | -4 | -32 | -6.7 | . | . | 0.8 | .
Cc1cc(C)cc(N(CC(=O)N2CCN(Cc3ccccc3)CC2)S(=O)(=O)c2c(C)noc2C)c1 | 6 | i | 9 | 8 | -4.1 | 96* | 0.7 | 5.0 | 3.2
CC(C)OC(=O)c1cccc(-c2ccc(C=O)o2)c1 | -2 | . | . | . | . | 72 | 0.71 | 1.7 | 1.8
OCC[C@@H]1C[C@H](O)[C@@H](O)[C@@]2(OCCc3cc(Cl)ccc32)O1 | . | i | -2 | -2 | 0.3 | . | . | -1.2 | .
C=CCOc1nc2c(c(=O)n(C)c(=O)n2C)n1Cc1ccccc1 | 1 | i | -3 | 3 | 0.1 | 2 | 0.65 | 4.0 | 1.5
COC(=O)c1cccc(S(=O)(=O)N2CCC(C)CC2)c1 | 5 | . | . | . | . | . | 0.66 | -1.3 | 2.8
Cc1ccccc1NC(=O)CSc1nnc(-c2ccccc2)n1-c1ccccc1 | -2 | . | . | . | . | -1 | 0.74 | -1.8 | -3.5
C=CCNC(=O)c1ccccc1NC(=O)Cc1ccccc1[N+](=O)[O-] | 6 | . | . | . | . | -3 | 0.6 | 1.4 | 0.8
Cc1nn(-c2ccccc2)c(Cl)c1C(=O)NNC(=O)c1ccccc1O | 10 | i | -14 | -6 | -7.6 | 1 | 0.67 | -1.7 | -1.1
O=C(CCN1CCOCC1)Nc1c(-c2ccccc2)c2cc(Br)ccc2[nH]c1=O | -10 | . | . | . | . | -1 | 0.62 | 0.6 | 3.8
Cc1nc([N+](=O)[O-])c(N2CCOCC2)n1Cc1ccccc1 | 7 | i | -6 | 1 | 1.7 | -2 | 0.71 | 4.4 | 6.9
Cc1sc2nc(SCC(=O)Nc3c(C)n(C)n(-c4ccccc4)c3=O)n(C)c(=O)c2c1C | -6 | . | . | . | . | . | 0.7 | 0.0 | 2.9
CCOC(=O)Nc1ccc2c(c1)N(C(=O)CN)c1ccccc1CC2 | 4 | i | -5 | 1 | 0.6 | -14 | 0.67 | 2.4 | 0.8
COc1ccc(OC)c(NC(=O)C2CC2c2ccccc2)c1 (stereo not drawn) | 3 | i | 1 | 3 | 1.1 | -12 | 0.67 | -0.4 | -0.1
COCC(=O)N(Cc1cc2ccc(C)cc2[nH]c1=O)c1ccccc1C | -5 | i | 6 | 8 | -1.0 | -27 | 0.65 | 1.8 | -5.5
Cc1ccc(S(=O)(=O)NCCC(=O)N2CCC(Cc3ccccc3)CC2)cc1 | 0 | i | -41 | -63 | -5.7 | 4 | 0.71 | -0.1 | -2.4
Nc1nc2sc3c(c2cc1C(=O)N1CCOCC1)CCCC3 | -5 | . | . | . | . | -21 | 0.7 | -2.6 | -41
C=C1CCc2c([nH]c3ccc(OCC(C)C)cc23)C1=O | 15 | i | 2 | 10 | -0.4 | -24 | 0.74 | -2.6 | -10
O=C(Nc1ccnn1C1CCN(C2CCC2)CC1)c1cccc(F)c1 | 8 | i | 7 | 0 | -2.0 | -3 | 0.7 | 13 | 2.9
C1=CN2CCC1C(c1ccccc1)C2 (stereo not drawn) | 11 | . | . | . | . | 0 | 0.8 | 0.4 | -3.1
OC[C@@H]1CN(CCN2CCOCC2)C[C@H](n2cnc3c(N4CCCC4)ncnc32)O1 | . | i | 15 | 14 | 1.8 | . | . | -0.6 | .
Cc1cccc(-n2c(O)c(C=NC3CCS(=O)(=O)C3)c3ccccc3c2=O)c1C (stereo not drawn) | -3 | i | -1 | 0 | 0.2 | -3 | 0.71 | 3.8 | 6.7
Cc1cc(C)nc(SCCCNCc2ccccc2)n1 | -5 | i | 5 | 4 | -0.8 | -9 | 0.72 | -0.9 | 3.4
COc1ccc(S(=O)(=O)NC(C)C(=O)NCc2ccncc2)cc1Cl (stereo not drawn) | 1 | i | 3 | 1 | -2.2 | -1 | 0.67 | 2.0 | -1.3
CC(/C=C/c1ccccc1)NC(N)=O (stereo not drawn) | 2 | i | 13 | 11 | 1.3 | -2 | 0.67 | 1.1 | 3.8
Cc1cccc(N2CCN(C(=O)c3ccnn3C)CC2)c1C | 2 | i | 7 | 0 | -1.3 | 7 | 0.68 | 2.3 | 0.6
Cn1ncc2c(=S)[nH]c(=S)[nH]c21 | . | i | 7 | 18 | 0.5 | . | . | 1.3 | .
CC(C)C(NS(=O)(=O)c1cccc2nsnc12)C(=O)N1CCCCC1 (stereo not drawn) | 1 | i | 3 | 5 | -2.8 | 0 | 0.68 | -0.5 | 4.5
Cc1ccc(S(=O)(=O)N2CCN(CC(=O)NC(=O)NCc3ccco3)CC2)cc1C | -2 | i | -1 | -2 | -7.1 | . | 0.69 | 2.4 | 2.6
O=C(CC1C(=O)NCCN1Cc1cccc(F)c1F)NCCCC1CCCC1 (stereo not drawn) | 0 | i | -38 | -42 | -2.5 | 13 | 0.69 | -3.7 | 0.6
CCCNC(=O)N1CCN(C(c2ccccc2)c2ccccc2)CC1 | 10 | i | 5 | 8 | -1.8 | -1 | 0.71 | 2.6 | 3.8
COc1ccc(C(=O)Nc2ccncc2)cc1S(=O)(=O)N1CCOCC1 | -6 | i | 4 | 6 | 0.0 | -7 | 0.67 | 0.6 | 1.0
COc1cccc(N2C(=O)C(c3ccccc3)=C(c3nc4ccccc4s3)C2NC(C)=O)c1 (stereo not drawn) | -1 | . | . | . | . | -13 | 0.72 | 5.4 | 4.5
O=C(Nc1ccccc1)Nc1nc(-c2ccccc2)cs1 | -2 | i | 5 | 1 | 3.0 | -1 | 0.68 | 3.6 | 6.3
